Screens as filed in PubChem.
FGF22 binding: binders of human FGF22 protein, primary screen, FGF22 synaptogenesis inhibitor project, biophysical, thermal shift, single point; Fibroblast growth factor 22 (Homo sapiens), Q9HCT0; recombinant FGF22 thermal shift, SYPRO orange fluorescence; percent of sucrose octasulfate shift, DMSO zero; calls only at 9.99 µM; actives 1.5% (n = 340,000); AID 651658, 2012;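 active means melting point raised past a set limit in the mean and every replicate; inconclusive means no clear call; three in four hits are not shown here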
Target sequence (Q9HCT0 whole entry, looked up): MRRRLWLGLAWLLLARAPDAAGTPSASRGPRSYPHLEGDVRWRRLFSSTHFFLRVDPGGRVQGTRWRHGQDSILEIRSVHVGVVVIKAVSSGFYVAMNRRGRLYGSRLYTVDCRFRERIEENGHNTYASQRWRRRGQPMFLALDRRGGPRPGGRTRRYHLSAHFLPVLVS
MLL AF4-AF9 inh: inhibitors of AF4 peptide binding to AF9, primary screen, biochemical, AlphaScreen, biotin-AF4 peptide, FLAG-AF9, single point. Protein AF-9 (Homo sapiens), P42568. AID 651704, 2012. inhibition, % at 10 µM. actives 0.47% (n = 350,000);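 active means every replicate reaching a set inhibition limit, whatever the replicate mean, cut at about 25% in these data; inconclusive means mean inhibition reaches that limit but some replicates miss it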;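 further: 0% = plate neutral control median and 100% = total signal loss; the record names both 10 and 1 µM as test concentration; the first replicate is given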
Target sequence (P42568 whole entry, looked up): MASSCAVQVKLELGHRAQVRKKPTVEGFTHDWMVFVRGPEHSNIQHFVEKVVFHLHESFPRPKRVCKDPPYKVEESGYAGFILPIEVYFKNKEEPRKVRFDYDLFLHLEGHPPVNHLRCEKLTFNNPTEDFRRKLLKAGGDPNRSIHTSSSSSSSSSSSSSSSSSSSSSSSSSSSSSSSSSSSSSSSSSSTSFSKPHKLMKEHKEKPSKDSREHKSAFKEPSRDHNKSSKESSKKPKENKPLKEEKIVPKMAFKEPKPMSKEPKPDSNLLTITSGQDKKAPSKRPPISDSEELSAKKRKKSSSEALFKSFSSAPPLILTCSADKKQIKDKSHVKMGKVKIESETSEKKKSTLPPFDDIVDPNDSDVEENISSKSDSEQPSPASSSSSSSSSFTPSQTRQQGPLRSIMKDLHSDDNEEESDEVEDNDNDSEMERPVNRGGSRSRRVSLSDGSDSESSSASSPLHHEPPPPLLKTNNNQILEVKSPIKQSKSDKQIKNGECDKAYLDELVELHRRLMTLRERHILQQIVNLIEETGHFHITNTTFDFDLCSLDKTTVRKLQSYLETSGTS
Ecoli rRNA inh: reduced GFP signal of wild-type E. coli, primary screen, bacterial rRNA inhibitor project, GFP/RFP fluorescence, OD600, single point. actives 1.6% (n = 350,000). GFP signal change (wild-type ribosome), % (concentration not given with the values). E. coli WT GFP vs humanized-ribosome RFP mutants, 24 h; hits give low values; DMSO median 0, no signal -100;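 active means significant combined selectivity score with lowered wild-type GFP, culture density cut under 30%, mutant RFP and density less affected; inactive means any of these conditions unmet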; further: one replicate is shown; some compounds called inactive have numbers as strong as hits
Ecoli rRNA inh OD600: further read-out of Ecoli rRNA inh, marked with its call; OD600 change, %; measured here: OD600 growth;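 optical density of the mix in the first replicate; 0 = DMSO median and -100 = no signal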
Ecoli rRNA inh RFP: recorded beside Ecoli rRNA inh, whose call it bears; RFP signal change, %; measured here: RFP humanized mutant strains;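 first replicate; 0 = DMSO median and -100 = no signal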
Active calls of the source: *; i = inactive; ? = inconclusive; & = joins results of further samples. Some of the compounds tested. The share of hits here may be higher or lower than overall.

SMILES,Ecoli rRNA inh,MLL AF4-AF9 inh,FGF22 binding,Ecoli rRNA inh RFP,Ecoli rRNA inh OD600
CC(=O)N(C)C[C@H]1Oc2cc(-c3cccc(C#N)c3)ccc2S(=O)(=O)N([C@@H](C)CO)C[C@H]1C,-3,-3.6,i,-4.5,9
C[C@@H]1CN([C@@H](C)CO)C(=O)c2cccc(NC(=O)C3CCOCC3)c2O[C@@H]1CN(C)C(=O)Nc1ccc2c(c1)OCO2,1,-2.6,i,-2.0,6
CCCNC(=O)C[C@@H]1CC[C@H]2[C@@H](COC[C@@H](O)CN2Cc2ccncc2)O1,0,-2.9,i,-1.0,3
CCCCN1C(=O)C(CC(=O)NCCN2CCOCC2)CC(C(=O)N(C)C)=C1C (centres undefined),-1,-0.4,i,2.8,5
Cc1noc(C)c1NC(=O)N(C)C[C@@H]1Oc2c(NS(=O)(=O)c3ccc(F)cc3)cccc2C(=O)N([C@@H](C)CO)C[C@@H]1C,1,-1.5,i,0.1,-4
CCCC#Cc1ccc([C@@H]2[C@H]3CN(Cc4cccnc4)CCCCN3[C@H]2CO)cc1,1,-3.5,i,25,-25
Cc1ccc(S(=O)(=O)N(C)C[C@H]2OCCCC[C@H](C)Oc3ccc(NC(=O)Nc4c(C)noc4C)cc3C(=O)N([C@@H](C)CO)C[C@@H]2C)cc1,1,5.2,i,0.6,1
C[C@@H]1CN([C@@H](C)CO)S(=O)(=O)c2ccc(C3=CCCC3)cc2O[C@@H]1CN(C)C(=O)C1CCOCC1,1,-2.4,i,-0.8,-4
COCCNC(=O)C[C@@H]1C[C@H]2c3cc(NC(=O)Cc4ccncc4)ccc3O[C@H]2[C@@H](CO)O1,3,-10,i,-1.9,22
C[C@@H]1CN([C@H](C)CO)C(=O)c2cccc(NS(=O)(=O)c3ccccc3)c2O[C@@H]1CN(C)Cc1ccc(C(F)(F)F)cc1,-6,2.3,i,1.7,-5
Cc1ccccc1-c1ccccc1[C@@H]1[C@H](C#N)N(C(=O)c2cccc(F)c2)[C@H]1CO,1,-1.4,i,12,-34
CN1c2ccc(-c3ccc(C#N)cc3)cc2[C@@H]2[C@@H](CCN2C(=O)CC2CC2)[C@H]1CO,-6,-0.9,i,-1.7,-2
COc1ccc(-c2ccc([C@H]3[C@@H](CO)N4CCCCN(C(=O)c5ccc(F)cc5)C[C@@H]34)cc2)cc1,0,-1.7,i,30,-35
O=C(CSc1nc2ccccc2o1)Nc1nc2c(s1)CCCC2,-31,-2.8,i,-13,-47
Cc1cc(Br)cn2c(Cc3ccccc3)c(C3CCCCC3)nc12,11,3.0,i,4.6,9

SMILES,Ecoli rRNA inh,MLL AF4-AF9 inh,FGF22 binding,Ecoli rRNA inh RFP,Ecoli rRNA inh OD600
CO[C@H]1CN(C)C(=O)c2cc(NC(=O)Nc3ccccc3F)ccc2OC[C@H](C)N(C(C)=O)C[C@H]1C,0,-0.9,i,-1.1,-1
Cc1cccc(S(=O)(=O)N(C)C[C@H]2OCc3ccccc3-c3ccccc3C(=O)N([C@@H](C)CO)C[C@@H]2C)c1,6,-5.3,i,-1.6,4
C[C@@H]1CN([C@H](C)CO)C(=O)c2cccc(NS(=O)(=O)c3ccccc3)c2O[C@H]1CN(C)C(=O)Nc1ccccc1,3,-7.6,i,0.0,-1
C[C@@H]1CCCCO[C@H](CN(C)S(=O)(=O)c2ccc(Cl)cc2)[C@H](C)CN([C@@H](C)CO)C(=O)c2cc(NS(=O)(=O)c3ccccc3)ccc2O1,-1,0.4,i,-0.9,-3
CN1C(=O)CN2CCc3ccccc3C2c2cc(Cl)ccc21 (centres undefined),-1,0.1,i,1.0,5
C[C@H](CO)N1C[C@H](C)[C@H](CN(C)C(=O)c2ccncc2)Oc2cc(-c3cccc(C#N)c3)ccc2S1(=O)=O,-4,-1.5,i,0.1,1
O=C(Cc1ccccn1)NCC[C@H]1CC[C@H](NC(=O)Nc2ccccc2)[C@@H](CO)O1,4,-5.6,i,-0.7,10
O=C1CN(C(=O)COC(=O)c2cc(Cl)ccc2[N+](=O)[O-])c2ccccc2N1,-1,3.5,i,-3.8,-17
O=C(Nc1ccccc1)N1C[C@@H]2[C@H](c3ccccc31)[C@@H](CO)N2C(=O)c1cccnc1,3,-12,i,-0.9,6
Cc1ccc(S(=O)(=O)Nc2ccc3c(c2)C(=O)N([C@@H](C)CO)C[C@@H](C)[C@H](CN(C)Cc2ccc4c(c2)OCO4)OCCCC[C@H](C)O3)cc1,0,2.4,i,2.2,-22
CC(=O)n1cc(C2CC(=O)OC3=C2CC(=O)C(C)(C)C3)c2ccccc21 (centres undefined),1,-0.8,i,-3.5,2
C[C@@H]1CN([C@@H](C)CO)C(=O)Cc2cc(NS(=O)(=O)c3ccc(Cl)cc3)ccc2O[C@@H]1CN(C)C(=O)Nc1cccc2ccccc12,1,1.5,i,2.5,-3
C[C@@H]1CN([C@@H](C)CO)C(=O)Cc2cc(NC(=O)Nc3cccc4ccccc34)ccc2O[C@H]1CN(C)C(=O)Nc1ccccc1,-4,1.4,i,-1.0,9
O=C(NCCN1CCC(n2c(=O)[nH]c3ccccc32)CC1)c1ccc(F)cc1Cl,12,-2.9,i,0.6,2
C[C@@H]1CN([C@H](C)CO)C(=O)CCCn2nncc2CO[C@H]1CN(C)Cc1cccc2c1OCCCO2,24&0,2.0&0.3,i,6.2&0.2,18&1

Pulled by structure from the entries so far (five):
SMILES,Ecoli rRNA inh,MLL AF4-AF9 inh,FGF22 binding,Ecoli rRNA inh RFP,Ecoli rRNA inh OD600
O=C1CN(C(=O)COC(=O)c2cc(Cl)ccc2[N+](=O)[O-])c2ccccc2N1,-1,3.5,i,-3.8,-17
Cc1ccc(S(=O)(=O)Nc2ccc3c(c2)C(=O)N([C@@H](C)CO)C[C@@H](C)[C@H](CN(C)Cc2ccc4c(c2)OCO4)OCCCC[C@H](C)O3)cc1,0,2.4,i,2.2,-22
O=C(Cc1ccccn1)NCC[C@H]1CC[C@H](NC(=O)Nc2ccccc2)[C@@H](CO)O1,4,-5.6,i,-0.7,10
O=C(NCCN1CCC(n2c(=O)[nH]c3ccccc32)CC1)c1ccc(F)cc1Cl,12,-2.9,i,0.6,2
C[C@@H]1CN([C@@H](C)CO)C(=O)Cc2cc(NS(=O)(=O)c3ccc(Cl)cc3)ccc2O[C@@H]1CN(C)C(=O)Nc1cccc2ccccc12,1,1.5,i,2.5,-3

(list continues)
SMILES,Ecoli rRNA inh,MLL AF4-AF9 inh,FGF22 binding,Ecoli rRNA inh RFP,Ecoli rRNA inh OD600
O=C(c1cccc(F)c1)N1C[C@H]2[C@@H](c3ccccc31)[C@@H](CO)N2C(=O)c1ccc(F)cc1,3,-3.2,i,-1.8,-3
NC(COCc1ccccc1)c1csc(Nc2ccc(S(N)(=O)=O)cc2)n1 (centres undefined),1,4.1,i,3.7,-5
C[C@H](C(=O)N(C)C[C@H]1OCc2ccccc2-c2ccccc2C(=O)N([C@H](C)CO)C[C@H]1C)c1ccccc1,-2,-1.7,i,3.2,-7
CC(=O)N1[C@H](CO)[C@@H](c2ccccc2)C12CN(S(=O)(=O)c1ccccc1)C2,2,-2.4,i,0.4,8
Cc1ccc(S(=O)(=O)N2C[C@H]3C(=O)C[C@@H](c4cccc(Cl)c4)N(S(=O)(=O)c4ccc(C)cc4)[C@H]3C[C@H]2c2cccc(Cl)c2)cc1,23,0.2,i,1.9,12
C[C@@H]1CN([C@H](C)CO)C(=O)c2cccc(NS(=O)(=O)c3cn(C)cn3)c2O[C@@H]1CN(C)C(=O)Nc1ccc(F)cc1,-2,-3.6,i,-1.4,5
COc1ccc(NC(=O)Nc2ccc3c(c2)C(=O)N([C@H](C)CO)C[C@H](C)[C@@H](CN(C)Cc2ccc(C(=O)O)cc2)OCCCC[C@H](C)O3)cc1,-1,-1.0,i,-1.2,-1
C[C@H]1CN([C@@H](C)CO)C(=O)Cc2cc(NS(C)(=O)=O)ccc2O[C@@H]1CN(C)S(=O)(=O)c1ccc(F)cc1,1,-1.5,i,-3.8,2
C[C@H]1CN([C@@H](C)CO)C(=O)c2cc(C#CCN(C)C)cnc2O[C@H]1CN(C)Cc1ccncc1,6,-1.9,i,-1.1,10
CN(C)CC(=O)Nc1ccc2c(c1)[C@H]1C[C@@H](CC(=O)NCCN3CCCCC3)O[C@H](CO)[C@H]1O2,1,3.7,i,-0.2,9
CO[C@@H]1CN(C)C(=O)c2cc(NC(C)=O)ccc2OC[C@@H](C)N(C(=O)Cc2ccccn2)C[C@@H]1C,3,?,i,-0.8,6
COC(=O)C[C@H]1CC[C@@H]2[C@@H](COc3ccc(NC(=O)Nc4cc(C)cc(C)c4)cc3C(=O)N2C)O1,-7,1.2,i,-1.6,-4
CCC(=O)Nc1ccc2c(c1)C(=O)N(C)[C@H]1CC[C@@H](CC(=O)Nc3cccc(OC)c3)O[C@@H]1CO2,-2,1.5,i,-1.7,2
O=C(C[C@H]1CC[C@@H]2[C@H](COC[C@@H](O)CN2C(=O)c2ccccc2)O1)Nc1ccccc1,-1,-0.9,i,38,6
O=C(C[C@H]1C=C[C@H](NC(=O)c2ccncc2)[C@H](CO)O1)NCC1CCCCC1,0,-1.6,i,-0.8,0

SMILES,Ecoli rRNA inh,MLL AF4-AF9 inh,FGF22 binding,Ecoli rRNA inh RFP,Ecoli rRNA inh OD600
Cc1noc(C)c1NC(=O)N[C@H]1CC[C@@H](CCNC(=O)C2CCCC2)O[C@H]1CO,1,-2.8,i,-0.5,12
CN1c2ccc(-c3cccc(C#N)c3)cc2[C@@H]2[C@@H](CCN2S(=O)(=O)c2ccccc2F)[C@@H]1CO,-7,-4.6,i,4.5,-9
C#Cc1ccc(NC(=O)C2(C)CCN2C(=O)Cc2ccc(C(C)(C)C)cc2)cc1 (centres undefined),-6,-1.7,i,-1.5,-14
CC(C)COC(=O)N1CCCCC1c1cc(C(=O)Nc2ccccc2)no1 (centres undefined),-2,-0.3,i,-1.9,-6
C[C@@H]1CN([C@@H](C)CO)C(=O)c2c(c3ccccc3n2C)-c2ccccc2CO[C@@H]1CN(C)C(=O)[C@@H]1CCCN1C,2,-3.0,i,2.5,-2
COc1ccc(CN2CCC(C)(Oc3ccc4c(c3)OCO4)C2)c2ccccc12 (centres undefined),-21,3.6,i,-0.7,-37
C[C@H]1CN([C@@H](C)CO)C(=O)c2cc(NC(=O)CCN3CCOCC3)ccc2O[C@@H]1CN(C)S(=O)(=O)c1ccccc1,3,-1.4,i,-4.3,5
C[C@@H]1CCCCO[C@H](CN(C)CC2CC2)[C@H](C)CN([C@@H](C)CO)C(=O)c2cc(NS(=O)(=O)c3ccccc3)ccc2O1,0,5.0,i,1.7,8
COc1ccc2c3c(n(C)c2c1)[C@@H](CO)N(C)CC31CN(S(=O)(=O)c2cn(C)cn2)C1,0,-1.2,i,-3.7,-2
COc1ccc(S(=O)(=O)N(C)C[C@@H]2Oc3cc(C#CC4CC4)ccc3S(=O)(=O)N([C@H](C)CO)C[C@H]2C)cc1,1,3.5,i,-1.1,-4
Cc1ccc(-c2ccc([C@H]3[C@H]4CN(C(=O)c5ccc(F)cc5)CCCCN4[C@H]3CO)cc2)cc1,0,-1.8,i,17,-38
CCCC#Cc1cnc2c(c1)C(=O)N([C@@H](C)CO)C[C@@H](C)[C@@H](CN(C)C(=O)CCN1CCCCC1)O2,2,-6.2,i,1.2,6
N#Cc1ccc(-c2nc3ccc(Cl)cn3c2Cc2ccccc2)cc1,-11,-1.5,i,14,1
COc1ccc(S(=O)(=O)N[C@@H]2CC[C@@H](CCNC(=O)Cc3ccccn3)O[C@H]2CO)cc1,-1,-0.1,i,0.9,-1
CC(C)NC(=O)Nc1ccc2c(c1)C(=O)N([C@H](C)CO)C[C@@H](C)[C@H](CN(C)C)O2,2,-0.9,i,0.1,3
C[C@H]1CN([C@@H](C)CO)C(=O)c2cccc(N(C)C)c2O[C@@H]1CN(C)S(=O)(=O)c1cn(C)cn1,3,-1.4,i,-3.9,4
COC(=O)C[C@H]1CC[C@@H]2[C@H](COC[C@@H](O)CN2CCC(F)(F)F)O1,-1,-0.9,i,-0.7,0
